EBI2 antag: EBI2 receptor antagonists, beta-arrestin recruitment, primary screen, cell-based, luminescence, 7a,25-OHC stimulation, uHTS; G-protein coupled receptor 183 (Homo sapiens), P32249; 7a,25-OHC stimulated; inhibition, % at 5 µM; 0.81% of 360,000 active; in the data active = inhibition above about 38%;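 also: enzyme fragment complementation signal reports receptor beta-arrestin coupling in cells; 0% = agonist plus DMSO wells and 100% = wells without agonist; some results beyond the cut were filed as inactive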
Target sequence (P32249 whole entry, looked up, the tested form may be a part): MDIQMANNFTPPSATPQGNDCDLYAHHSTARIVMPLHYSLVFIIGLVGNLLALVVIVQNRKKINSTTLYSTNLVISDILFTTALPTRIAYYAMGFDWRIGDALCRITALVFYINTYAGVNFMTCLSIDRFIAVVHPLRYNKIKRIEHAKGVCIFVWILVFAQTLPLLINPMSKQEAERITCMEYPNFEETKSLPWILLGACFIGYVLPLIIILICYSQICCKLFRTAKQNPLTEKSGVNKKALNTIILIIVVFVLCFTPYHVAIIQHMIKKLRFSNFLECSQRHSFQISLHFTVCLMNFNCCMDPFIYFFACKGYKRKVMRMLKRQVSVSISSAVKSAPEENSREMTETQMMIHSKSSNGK
GRIN3A LBD mod: binders of NR3A ligand-binding domain, primary screen, biophysical, differential scanning fluorimetry, uHTS; 2.5% of 340,000 active; Glutamate receptor ionotropic, NMDA 3A (GRIN3A) ligand-binding domain; NR3A LBD differential scanning fluorimetry, Tm shift; 0% = protein alone, 100% = glycine-bound protein; AID 1259313, 2017; Tm shift relative to glycine control, % at 25 µM;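 active = melting temperature shift of at least 10% of the positive control shift, at one fixed dose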
A3A deaminase: APOBEC3A ssDNA deaminase inhibitors, primary screen, selectivity assay for APOBEC3G inhibitor project, biochemical, FAM/TAMRA oligo cleavage fluorescence; recombinant A3A, FAM/TAMRA ssDNA deamination fluorescence; inhibition, % at 20 µM; 0.41% of 330,000 active;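 active = at least 40% inhibition at 20 µM here, with at most 30% in a related deaminase screen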;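 also: plate controls were A3A with DMSO for no effect and wells lacking A3A enzyme for full effect; some results filed as inactive read as strong as hits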
Target sequence (P31941 whole entry, looked up): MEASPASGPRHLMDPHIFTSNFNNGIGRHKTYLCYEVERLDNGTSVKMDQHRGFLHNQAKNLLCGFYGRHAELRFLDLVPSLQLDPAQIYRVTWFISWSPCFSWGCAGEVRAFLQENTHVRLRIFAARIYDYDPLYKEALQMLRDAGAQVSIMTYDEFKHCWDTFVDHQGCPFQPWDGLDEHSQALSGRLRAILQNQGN
MPTP inh: mitochondrial permeability transition pore inhibitors, primary screen, biochemical, isolated mouse mitochondria, absorbance | 1.4% of 360,000 active | inhibition, % at 10 µM | Ca2+ swelling absorbance, 30 min;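 active = inhibition of 50% or more, scaled per plate between neutral and stimulator controls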;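 also: 0% = DMSO wells given calcium and 100% = 1 mM EGTA wells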
A3G deaminase: APOBEC3G DNA deaminase inhibitors, primary screen, biochemical, fluorescence, single-stranded DNA substrate, uHTS; DNA dC->dU-editing enzyme APOBEC-3G (Homo sapiens), Q9HC16; recombinant A3G, ssDNA deamination FAM/TAMRA fluorescence; inhibition, % at 20 µM; 0.28% of 330,000 active; AID 493012, 2011;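 active = inhibition of at least 40% at 20 µM, with no more than 30% in the related APOBEC3A deaminase screen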;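 also: plate controls were DMSO wells with A3G for no effect and wells lacking A3G enzyme for full effect; some compounds called inactive have numbers as strong as hits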
Target sequence (Q9HC16 whole entry, looked up): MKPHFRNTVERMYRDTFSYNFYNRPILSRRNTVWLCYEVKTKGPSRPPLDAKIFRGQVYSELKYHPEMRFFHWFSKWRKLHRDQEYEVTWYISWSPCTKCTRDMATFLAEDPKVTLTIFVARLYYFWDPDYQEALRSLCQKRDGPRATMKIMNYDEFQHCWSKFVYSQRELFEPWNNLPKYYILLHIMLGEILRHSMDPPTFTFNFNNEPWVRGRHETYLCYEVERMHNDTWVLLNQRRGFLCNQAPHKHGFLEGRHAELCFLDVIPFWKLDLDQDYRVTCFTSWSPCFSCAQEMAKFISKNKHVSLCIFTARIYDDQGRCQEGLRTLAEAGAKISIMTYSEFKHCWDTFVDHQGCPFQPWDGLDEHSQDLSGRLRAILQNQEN
Gli-Sufu block: Gli-Sufu pathway antagonists, primary screen, luciferase luminescence, Sufu-KO-LIGHT cells, uHTS; inhibition, % at 5 µM; Sufu-KO-LIGHT fibroblasts, Gli luciferase reporter luminescence; 0.74% of 340,000 active;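 active = inhibition above about 55%, limit read from the data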;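 also: 0% = DMSO-treated cells and 100% = wells with medium but no cells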
An asterisk follows results filed as active; nt = not tested or not shown. These rows are one share of the data (hit frequency here may not be typical).

SMILES | EBI2 antag | GRIN3A LBD mod | A3A deaminase | MPTP inh | A3G deaminase | Gli-Sufu block
Cc1cc(C(=O)NNC(=S)NC(C)c2ccccc2)c2ccccc2n1 (stereo not given) | -8 | -3 | 0 | -0.7 | -1 | 31
Cn1c(C2CC(=O)N(Cc3ccccc3)C2)nc2ccccc21 (stereo not given) | 10 | 3 | -5 | 0.7 | -3 | 6
O=S(=O)(Cc1cccc(C(F)(F)F)c1)c1ncn[nH]1 | 5 | -2 | -3 | -1.1 | -10 | 6
Cc1ccc(C(=O)OCC(=O)NC(C)c2ccccc2)cc1C (stereo not given) | -9 | 0 | 0 | -0.5 | -4 | 1
CCOC(=O)Cn1c(-c2nonc2NC(=O)c2ccccc2F)nc2ccccc21 | 55* | -7 | -6 | -1.4 | -4 | 5
O=C(N/N=C/c1ccccn1)c1cc(-c2ccc(Cl)cc2)nc2ccccc12 | 72* | -10 | -2 | 3.4 | -8 | 89*
Cc1cc(=O)oc(C)c1C(=O)N[C@@H]1CCCCNC1=O | -8 | -1 | 0 | -3.5 | -2 | 4
Cc1nn(-c2ccccc2)c2[nH]c(=O)c(CNCC3CCCO3)cc12 (stereo not given) | 4 | -1 | -2 | -2.8 | 0 | -3
COc1ccccc1N1C(=O)N(CC(=O)C(C)(C)C)c2ccccc2S1(=O)=O | 9 | 1 | 0 | 2.1 | -4 | 9
CC(C)NC(=O)CNc1ccc(C(F)(F)F)cc1[N+](=O)[O-] | 2 | 0 | 6 | 1.6 | -2 | 4
CC(C)C1Cc2c(sc3c2c(=O)n(Cc2ccccc2)c2nncn32)CO1 (stereo not given) | 28 | -9 | -2 | -0.9 | -1 | -7
COc1ccc(C2CC(=O)NC3=C2C(=O)CCC3)cc1Cl (stereo not given) | -11 | 1 | 3 | -3.1 | -2 | 1
CC(=O)NS(=O)(=O)c1cccnc1Nc1cccc(Cl)c1C | -3 | -1 | -3 | 0.8 | -7 | -5
CCOc1ccccc1NC(=O)CSc1nnc(C2CC2)n1CC | -6 | -2 | -5 | 0.2 | 5 | 19
Cc1csc(NC(=O)c2ccccc2)n1 | 5 | 0 | 0 | -1.7 | -4 | 4
CN(C)S(=O)(=O)c1cccc(NC(=O)CSc2nc3ccccc3n2-c2ccccc2)c1 | 8 | -2 | 0 | 1.8 | -3 | 3
CC(=O)N/C(=C\c1ccccc1)C(=O)OC(C)C(=O)NCc1ccccc1 (stereo not given) | 8 | 1 | -1 | 0.1 | -11 | -11
C=CCn1c(C)cc(C(=O)COC(=O)c2ccc(N)c([N+](=O)[O-])c2)c1C | 6 | -8 | -4 | 32 | -9 | -72
Cc1sc2nc(SCCN(C)C)n(-c3ccccc3)c(=O)c2c1-c1ccc(F)cc1 | 18 | -2 | -3 | 0.5 | -9 | 10
O=C1NC[C@H](c2ccccc2)OC(=O)[C@H](Cc2ccc(F)cc2)C/C=C\C[C@@H]1CC(=O)N(CCO)Cc1ccccc1 | 1 | 1 | -4 | 1.8 | -6 | 1
Cc1ccc(S(=O)(=O)N=C2SCCCS2)cc1 | -2 | 1 | -3 | -5.0 | -2 | 2
COCCn1nnnc1C(c1cc2cc(C)ccc2[nH]c1=O)N1CCc2ccccc21 (stereo not given) | 9 | 2 | -1 | 0.2 | -5 | -5
CCOc1ccc(C(=O)N/N=C(\c2ccccc2)c2ccccn2)cc1 | 18 | -2 | 3 | -1.0 | -6 | 41
Cc1cccc(/C=N/Nc2ccc3ccccc3n2)c1 | 2 | -10 | -1 | 2.0 | -8 | 40
O=S(=O)(Cc1c(F)cccc1Cl)c1ncn[nH]1 | 14 | 0 | 2 | -0.6 | -9 | -2

The last five records of the part above open the next one.
SMILES | EBI2 antag | GRIN3A LBD mod | A3A deaminase | MPTP inh | A3G deaminase | Gli-Sufu block
Cc1ccc(S(=O)(=O)N=C2SCCCS2)cc1 | -2 | 1 | -3 | -5.0 | -2 | 2
COCCn1nnnc1C(c1cc2cc(C)ccc2[nH]c1=O)N1CCc2ccccc21 (stereo not given) | 9 | 2 | -1 | 0.2 | -5 | -5
CCOc1ccc(C(=O)N/N=C(\c2ccccc2)c2ccccn2)cc1 | 18 | -2 | 3 | -1.0 | -6 | 41
Cc1cccc(/C=N/Nc2ccc3ccccc3n2)c1 | 2 | -10 | -1 | 2.0 | -8 | 40
O=S(=O)(Cc1c(F)cccc1Cl)c1ncn[nH]1 | 14 | 0 | 2 | -0.6 | -9 | -2
Cc1cccc(NC(=O)c2ccc(-c3ccccc3[N+](=O)[O-])o2)c1 | 10 | 27* | -6 | 0.3 | -18 | -14
Cc1ccc2cc(C(c3nnnn3Cc3ccccc3)N3CCc4ccccc43)c(=O)[nH]c2c1C (stereo not given) | 13 | -2 | 1 | 3.6 | -4 | 9
CCN(CC)CC(=O)N1c2ccccc2Oc2c(c(=O)n(C)c(=O)n2C)C1c1cccc([N+](=O)[O-])c1 (stereo not given) | 1 | -4 | 0 | 0.7 | -2 | 10
O=c1cc(O)nc(SCc2ccccc2Cl)[nH]1 | -6 | -5 | 0 | -1.5 | 1 | 1
O=C(/C=C/NNC(=O)c1cccc(Br)c1)c1ccccc1 | -1 | -3 | -4 | -2.7 | -4 | 15
NS(=O)(=O)c1cccc(NS(=O)(=O)c2cccc(C(F)(F)F)c2)c1 | 1 | 0 | -4 | 1.8 | -8 | 10
C/C(=N\NC(=O)c1ccc(NS(=O)(=O)c2cccs2)cc1)c1ccc(Cl)cc1 | -4 | -2 | -5 | 2.0 | -1 | 9
c1ccc(-c2cnc(-c3cccnc3)o2)cc1 | 0 | 0 | -5 | -1.7 | -8 | -40
Cc1ccc(S(=O)(=O)N2CCN(c3ncnc4scc(-c5ccccc5)c34)CC2)cc1 | 25 | -2 | -1 | -0.5 | -3 | 10
O=C(N/N=C/c1ccccn1)c1cc(Br)ccc1O | 5 | -6 | -4 | -1.0 | -7 | -6
C=CCSc1nnc2c(n1)[nH]c1c(C)cccc12 | -7 | 0 | 3 | 0.8 | -1 | -71
Cc1cc(N/N=C\c2ccc(Br)cc2)nc(-n2nc(C)cc2C)n1 | 37 | -14 | 1 | 1.3 | -2 | -1
COC(=O)Cc1c(C)nc2nc[nH]n2c1=O | -5 | -1 | 1 | 1.2 | -7 | 2
COC(=O)c1ccc(N)c(N=CC2=C(O)CC(C)(C)CC2=O)c1 | 21 | 3 | -7 | -1.7 | -5 | -7
CC(C)(C)NC(=O)CN(C(=O)CCN1CCCc2ccccc21)C(C)(C)C | 0 | -1 | 2 | -1.0 | -4 | 6
Cc1cccc(/C=C/C(=O)c2ccc([N+](=O)[O-])o2)c1 | -10 | -7 | 0 | -0.4 | -9 | -7
CCCCNC(=O)c1nc(C2CCN(S(=O)(=O)c3ccc(F)c(F)c3)CC2)oc1-c1ccccc1 | -7 | nt | nt | -0.5 | nt | nt
N#CC(C(=O)NC1CCCCC1)c1nc2ccccc2nc1N1CCN(c2ccccc2F)CC1 (stereo not given) | 24 | 3 | -3 | 1.8 | -5 | 0
CCC(C)COC(=O)C(C#N)c1nc2ccccc2nc1N1CCCCC1 (stereo not given) | 11 | 1 | 1 | 1.7 | -3 | 18
Cc1nc(SCC(=O)N2CCNC2=O)c2ccccc2n1 | 5 | 0 | -4 | 1.5 | -2 | 1
COc1ccccc1NC(=O)c1c(Br)cnn1C | -4 | 0 | -6 | 0.4 | -4 | -6
CC(NC(=O)COC(=O)COc1ccc(C(=O)c2ccccc2)cc1)c1ccccc1 (stereo not given) | -6 | 0 | 2 | -0.6 | 8 | nt
Cc1ccc(NC(=S)NC(=O)c2ccc(-c3ccc(Cl)cc3)o2)c(O)c1 | 37 | 34* | -3 | 3.0 | -8 | -4
CCC1Nc2ncnc(N3CCN(c4ccccn4)CC3)c2N(Cc2ccc(Cl)cc2)C1=O (stereo not given) | 80* | -2 | -6 | -0.3 | -8 | 36
COc1cccc(/C=C/C(=O)OCC(=O)c2ccc3c(c2)NC(=O)CO3)c1OC | 13 | 1 | -1 | -2.2 | -11 | -2

Profiles, looked up by structure. Values in the order: EBI2 antag | GRIN3A LBD mod | A3A deaminase | MPTP inh | A3G deaminase | Gli-Sufu block
Shown for Cc1cc(N/N=C\c2ccc(Br)cc2)nc(-n2nc(C)cc2C)n1 → 37 | -14 | 1 | 1.3 | -2 | -1
Shown for Cc1nc(SCC(=O)N2CCNC2=O)c2ccccc2n1 → 5 | 0 | -4 | 1.5 | -2 | 1
Shown for C/C(=N\NC(=O)c1ccc(NS(=O)(=O)c2cccs2)cc1)c1ccc(Cl)cc1 → -4 | -2 | -5 | 2.0 | -1 | 9

An excerpt from above, showing only EBI2 antag, Gli-Sufu block and MPTP inh:
smiles | EBI2 antag | Gli-Sufu block | MPTP inh
CCN(CC)CC(=O)N1c2ccccc2Oc2c(c(=O)n(C)c(=O)n2C)C1c1cccc([N+](=O)[O-])c1 (stereo not given) | 1 | 10 | 0.7
NS(=O)(=O)c1cccc(NS(=O)(=O)c2cccc(C(F)(F)F)c2)c1 | 1 | 10 | 1.8
CCCCNC(=O)c1nc(C2CCN(S(=O)(=O)c3ccc(F)c(F)c3)CC2)oc1-c1ccccc1 | -7 | nt | -0.5

Later entries:
SMILES | EBI2 antag | GRIN3A LBD mod | A3A deaminase | MPTP inh | A3G deaminase | Gli-Sufu block
Cc1cc(OCc2nc(-c3ccc(NC(=O)c4cccnc4)cc3)no2)ccc1Cl | -4 | 2 | 0 | -0.9 | -6 | 25
O=C(Cn1nc(-c2ccccc2)nc1-c1ccccc1)OC1CCCCC1 | 1 | 3 | -5 | 0.0 | -8 | -11
Cc1ccc(NC(=S)NNC(=O)Nc2ccccc2)cc1 | 9 | 1 | 4 | -1.0 | 0 | -18
O=C(O)c1ccc(N=Cc2nc(-c3ccco3)oc2O)cc1 | -10 | -1 | -1 | -1.8 | -6 | 1
O=C(C1CCN(S(=O)(=O)c2cccc3cccnc23)CC1)N1CCn2c1nc1ccccc12 | 92* | 2 | 4 | 0.1 | 4 | -8
NC(=O)c1ccc(Oc2cccc3cccnc23)c([N+](=O)[O-])c1 | -19 | -4 | 1 | -1.8 | 0 | -2
CCC(=O)N1CCC1(C)C(=O)Nc1ccc(Cl)c(Cl)c1 (stereo not given) | -15 | nt | nt | -0.5 | nt | nt
CCOC(=O)c1c(N)n(CCOC(=O)c2cccs2)c2nc3ccccc3nc12 | 21 | -8 | 5 | -1.5 | 2 | 25
Cc1cc(C(=O)OCC(=O)c2ccccc2)c2ccccc2n1 | 10 | -1 | -3 | 0.2 | -7 | 14
O=C(N/N=C/c1ccccn1)c1cc(-c2ccc(Br)cc2)nc2ccccc12 | 76* | 2 | 2 | 1.6 | 1 | 72*
O=c1cc(-c2ccccc2)nc2n1Cc1ccccc1-2 | 27 | 0 | 2 | -1.4 | -4 | -2
O=C(N/N=C/c1ccoc1)c1ccc(Cl)cc1Cl | 7 | 1 | 9 | -1.8 | -4 | -7
O=C(NC1CCCCCC1)C1CCN(C(=O)c2ccc(Br)cc2)CC1 | 38 | 1 | -4 | -1.5 | -9 | 10
CCOC(=O)C1=C(Cc2ccc(F)cc2)C(=O)c2ccccc2C1=O | 3 | -8 | 7 | 14 | 16 | -1
COc1c(C)cccc1C(=O)NC(=S)Nc1ccc2c(c1)Cc1ccccc1-2 | -4 | -1 | nt | 0.6 | nt | 4
COc1cccc2cc(C(=O)CS(=O)(=O)c3ccc(C(C)(C)C)cc3)c(=O)oc12 | -7 | -3 | 1 | -0.9 | -1 | 18
O=C(NC(=S)N1CCN(Cc2ccc3c(c2)OCO3)CC1)c1cccc(Br)c1 | -1 | -3 | -3 | 1.3 | -5 | 4

Source: PubChem BioAssay
